# From PubChem BioAssay
# Menin-MLL FL inh = inhibitors of human menin-MLL interaction, wild-type MLL peptide | 290,000 tested, under 10 active | Fluorescence polarization, fluorescein-MLL peptide displacement from menin | FP activity change, % at 61.4 µM; inconclusive = falling polarisation curve, or a change in total fluorescence; inactive = total fluorescence flat and polarisation flat or rising; no compound was filed as active; the % refers to the polarisation; negative = inhibition;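 also: % of control where 0% means no effect; inhibitors lower the polarisation; unlabelled MLL peptide was the positive control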
# ClpP mod = qHTS Assay for Activators of ClpP; Potency, µM (top dose mostly 57.5 µM), for inactives: at the top dose activity change, negative = active; purified B. subtilis ClpP, FRET peptide cleavage, 20 min; hit rate 1.9% among 340,000; active = well fitted falling curve with a large enough effect; inconclusive = small, poorly fitted or top-dose-only effect; inactive = no such curve, though single readings can be large or run the other way; also: potency is read from the fitted curve at half-maximal effect; the source files actives as falling curves though it sought activators and does not explain the sign; nearly all actives have a fitted effect of over 65% in size; many hits overshoot -100%
# Target sequence (P80244 whole entry, looked up): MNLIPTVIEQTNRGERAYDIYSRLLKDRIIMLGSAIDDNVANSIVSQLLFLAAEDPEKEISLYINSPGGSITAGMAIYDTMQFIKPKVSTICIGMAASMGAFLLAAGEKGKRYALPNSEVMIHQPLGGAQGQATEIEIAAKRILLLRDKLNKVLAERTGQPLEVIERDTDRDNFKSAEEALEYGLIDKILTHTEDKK
#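 Purified B. subtilis ClpP, 10 microg/mL final in Tris/HCl pH8 with KCl, BSA, glycerol and Tween-20, cleaved an Abz/nitrotyrosine-quenched decapeptide. Fluorescence (ex 320, em 430) was read at 0 and 20 min at room temperature. Delta was normalized to 5.8 microM ADEP and DMSO/no-enzyme controls.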
# Sfp inh = inhibitors of Bacillus subtilis Sfp phosphopantetheinyl transferase. Potency, µM, for inactives: max response, negative = inhibition, most hits filed as inhibitors. hit rate 3.5% among 310,000. Biochemical Sfp PPTase activity, qHTS. Q9F4F7; active = well fitted inhibition curve with a large enough effect; inconclusive = small, poorly fitted or top-dose-only effect, or another doubt; inactive = no such curve, though single readings can be large or run the other way;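 also: the enzyme is Sfp with the accession as filed and its product quenches rhodamine fluorescence; potency is read from the fitted curve at half-maximal effect; 0% = enzyme reaction without inhibitor and -100% = no enzyme wells; top concentration of the series not given in the record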
#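 With Hepes-Na pH 7.6 buffer containing 10 mM MgCl2, Sfp (15 nM) modified BHQ-2-YbbR (12.5 uM) using rhodamine-CoA (5 uM). Two reads 30 minutes apart at 525/598 nm yielded each well's rate.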
# PINK1 modulator = modulators of PINK1 expression; PINK1 immunofluorescence, high-content cytometry, 24 h; Potency, µM (highest dose often 76.6 µM), without a hit: at the top dose activation (PINK1 increase), hits mostly activators; hit rate 0.2% among 410,000; active = well fitted activation curve with a large enough effect; inconclusive = small, poorly fitted or top-dose-only effect; inactive = flat fitted curve, though single readings scatter; cell line not stated here;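 also: potency is read from the fitted curve at half-maximal effect; % of control where 0% means no effect; nearly all actives have a fitted effect of over 65% in size; a mitochondrial uncoupler was the plate control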
#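 Readout is PINK1 immunofluorescence, quantified alongside mitochondrial, cell and nuclear markers by laser-scanning microplate cytometry. Cells from a stable line were exposed to compound titrations (5 concentrations) for 24 hours, with CCCP controls.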
# TRPML1 blocker = human mucolipin-1 channel inhibition; Q9GZU1; hit rate 0.02% among 390,000; activity change, negative = inhibition, % (no concentration beside the values); AID 624415; TRPML1-inducible cells, Ca2+ dye fluorescence, FDSS; active compounds read low; inhibition of EC80 agonist-evoked calcium signal; in the data active means activity change below about -50%; inconclusive means about -30% to -50%; inactive means above about -30%;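 also: stimulus is agonist 54-4 at its EC80 concentration; % is scaled to controls: 0 for no effect and ±100 for the full control effect; compound concentration not given in the record; the text of the record puts the active cut at -80%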
# Target sequence (Q9GZU1 whole entry, looked up): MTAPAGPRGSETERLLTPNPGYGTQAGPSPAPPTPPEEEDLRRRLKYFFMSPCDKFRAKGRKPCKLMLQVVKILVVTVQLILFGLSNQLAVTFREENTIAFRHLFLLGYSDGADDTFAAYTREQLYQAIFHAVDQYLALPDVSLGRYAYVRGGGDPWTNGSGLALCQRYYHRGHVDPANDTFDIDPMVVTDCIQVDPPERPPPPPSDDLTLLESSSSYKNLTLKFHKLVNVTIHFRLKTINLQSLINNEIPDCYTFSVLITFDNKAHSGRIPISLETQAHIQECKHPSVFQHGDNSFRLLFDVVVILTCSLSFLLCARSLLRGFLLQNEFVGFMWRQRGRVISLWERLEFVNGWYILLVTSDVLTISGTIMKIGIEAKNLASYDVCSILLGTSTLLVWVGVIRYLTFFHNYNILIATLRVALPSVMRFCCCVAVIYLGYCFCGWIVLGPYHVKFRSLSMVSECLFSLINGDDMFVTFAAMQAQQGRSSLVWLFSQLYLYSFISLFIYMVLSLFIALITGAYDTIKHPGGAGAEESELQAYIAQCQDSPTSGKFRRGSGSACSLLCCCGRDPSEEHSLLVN
#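 Calcium fluorescence in TRPML1-DL cells induced overnight with Tet: a 110 s read after compound pin addition, then a 110 s antagonist read after challenge with 54-4 at 4 uM final (EC80).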
# TRPV1 potentiator = enhances activation of the human vanilloid receptor TRPV1 | hit rate 0.02% among 320,000 | potentiation, % at 8.33 µM | TRPV1-expressing cells, Fluo-8 calcium influx, capsaicin EC20 potentiation; host cell line not named in the record; control for the full effect not named in the record | AID 540277; active means potentiation above 80%; inconclusive means 30% to 80%; inactive means below 30%; also: 0% is about no effect
#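 TRPV1-expressing cells were cultured overnight at 35.5C and loaded with Fluo-8 calcium dye for 40 to 90 min at room temperature. After a 10 s baseline, compound was added and calcium influx was read kinetically for 3 min (ex 480/em 520 nm).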
# TRPML1 ag = agonists of human TRPML1 channel; AID 624414; activation, % (concentration not given with the values); hit rate 0.12% among 410,000; Q9GZU1; TRPML1-expressing cells, Ca2+ dye fluorescence, FDSS; host cell line not named in the record; reference of the full effect not given here; in the data active = activation above about 50%; inconclusive = about 30% to 50%; inactive = below about 30%; also: 0% is about no effect; the text of the record puts the active cut at 80%
#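 Cells: TRPML1-DL, 1X Tet inducer, ~16 h at 37 degrees C/5% CO2. Dye: ABD Ca8 no-wash + quencher, 45-90 min RT. Read: 10 s baseline, compound add, 110 s agonist phase; 54-4 EC80 (4uM final), 110 s antagonist phase.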
# Numbers without * were called inactive; u = inconclusive; x = no result given; & = joins results of further samples; [ ] = dose if it differs, or a comment.
# Values run as follows: Menin-MLL FL inh	ClpP mod	Sfp inh	PINK1 modulator	TRPML1 blocker	TRPV1 potentiator	TRPML1 ag
> O=C(OCc1nc2ccccc2[nH]1)C12CC3CC(CC(C3)C1)C2
    -0.5	-1.4%	-25%	5.3%[38.3 µM]	-4	-7	3.6
> N/C(=N\OC(=O)c1ccc(Cl)cc1[N+](=O)[O-])c1cccnc1
    -0.5	x	-1%	-1.6%	-1	16	0.1
> COC(=O)C1=C(NC(=O)COc2ccc(Cl)cc2Cl)CCS1
    3.6	u	17%	2.3%	-7	0	1.9
> C[C@@H]1CN([C@@H](C)CO)C(=O)CCCn2nncc2CO[C@@H]1CN(C)S(=O)(=O)c1ccc(Cl)cc1
    x	-3.5%	x	-1.2%	27	x	0.4
> Cc1cc(C)n2nc(C(=O)Nc3c(C)nn(Cc4ccc(F)cc4)c3C)cc2n1
    2.7	u	10%	0.0%	-5	2	1.1
> CS(=O)(=O)N(CC(=O)N1CCC(C(N)=O)CC1)c1ccc(Oc2ccccc2)cc1
    -6.5	0.4%	4%	-0.4%	42	-4	0.5
> COC(=O)c1ccc(-c2ccc(/C=N/NC(=O)CC3(C)OCCCO3)o2)cc1
    -1.2	x	50µM*	2.5%	6	7	1.0
> Cc1sc2ncn(C(C)C(=O)OC3CCCCC3)c(=O)c2c1C (centres undefined)
    1.0	0.6%	-3%	2.5%	2	u	-0.3
> COc1ccc2c(c1)c1c(c(=O)n(-c3cccc(C)c3)c(=O)n1CC(=O)Nc1c(C)cc(C)cc1C)n2C
    x	3.3%	x	1.5%	-2	x	-0.4
> O=C1NC(c2ccccc2Br)=N/C1=C\c1ccco1
    u	-4.9%	u	0.1%	-6	-5	0.9
> CC(Cc1ccccc1)N/C=C1/CC(=O)NC1=O (centres undefined)
    -1.6	0.1%	-10%	5.6%[38.3 µM]	7	-3	0.3
> Cc1c(Cl)cccc1NC(=S)NCc1ccccc1Cl
    1.0	-1.7%	1%	9.3%	-22	-9	1.0
> COc1ccc(Br)c(Cn2c(C)c(C(=O)NCCC#N)sc2=O)c1
    x	2.2%	x	-0.5%	x	x	-0.7
> CCCCOc1ccc(C(=O)Oc2ccc(C)nc2)cc1
    4.7	-1.1%	-12%	0.7%[38.3 µM]	-18	-22	0.4
> CCCc1ccc(Oc2cc(N3CCOCC3)nc(-c3ccccc3)n2)cc1
    x	u	x	-1.6%[38.3 µM]	2	x	0.5
> O=[N+]([O-])c1ccc2c(c1)nc1n2CCN(C2CCCCC2)C1
    0.4	x	0%	0.6%	-9	-16	-1.1
> O=C(CNS(=O)(=O)c1ccccc1)Nc1ccc(F)cc1F
    x	1.2%	3%	0.7%	1	3	-0.6
> CCOCCCNS(=O)(=O)c1ccc(Br)cc1
    -0.5	-1.4%	7%	-0.7%	4	12	0.6
> CCc1cccc2c(=O)c(C(=O)N3CCOCC3)c[nH]c12
    0.4	-5.2%	11%	-1.9%	4	-2	1.5
> CCCn1c(=S)[nH]c2cc(OC)c(OC)cc2c1=O
    -1.2	-4.2%	2%	7.0%[38.3 µM]	-5	10	0.1
> COc1ccc(N(Cc2ccccc2)C(=O)OC(C)(C)C)c(C(=O)N(C)OC)c1
    x	0.0%	x	-0.6%	-7	x	-0.9
> O=c1c(N2CCOCC2)coc2ccccc12
    3.6	-11%	-3%	0.5%	-21	-6	0.2
> CN(C(=O)c1cccc(NC(=O)Cc2cccc(NC(=O)C3CCCN(C(=O)C4CC4)C3)c2)c1)C1CC1 (centres undefined)
    x	0.0%	x	0.0%	0	x	1.1
> CCOC(=O)Cc1nnc(NC(=O)C2CCCCC2)s1
    2.3	0.7%	18%	0.6%	1	8	1.7
> CC(C)c1ccc(NC(=O)N2CCOCC2)cc1
    1.4	0.3%	15%	1.7%	-12	-27	-0.2
> O=C(NC1CCCCCC1)c1ccc(Br)o1
    4.8	x	11%	-2.1%	-19	1	1.0
> Cc1ccc(-c2nnn(CC(=O)N(CC3CCCO3)C(C(=O)NC3CCCC3)c3ccc(F)cc3)n2)o1 (centres undefined)
    4.8	-0.9%	12%	4.5%	-3	-8	-0.3
> Nc1ccc2c(c1)C1(CCC2)NC(=O)NC1=O (centres undefined)
    x	-0.6%	x	1.0%	24	x	-0.4
> CCCC1(CCC)NC(=O)NC1=O
    2.5	-1.5%	15%	-1.7%	-19	-6	-0.7
> O=C(c1cc(COc2ccc(F)cc2F)on1)N1CCOCC1
    0.2	2.1%	2%	1.3%	4	-15	1.0
> CSc1nc(NCCCN(C)C)c2c3c(sc2n1)CN(C)CC3
    -16	x	7%	x	x	-11	x
> O=C(CSc1ccccc1)NCC1(N2CCCCC2)CCCCC1
    x	0.4%	x	1.5%	1	-20	-1.0
> CC(=O)NC1CCCc2c1cnn2-c1ccc(C(C)(C)C)cc1 (centres undefined)
    1.1	-1.9%	12%	-0.9%	-15	-10	-0.6
> Cc1cc(NC(=O)C2CCCCC2)ccc1NC(=O)c1ccccc1Cl
    6.9	16µM*	8%	19%	-14	7	0.7
> CCN(c1ccccc1)S(=O)(=O)c1cccc(C(=O)NCCOc2ccccc2OC)c1
    x	-1.7%	x	0.1%	4	-3	0.8
> O=[N+]([O-])c1cccc(/C=N/Nc2nc(C(Cl)(Cl)Cl)nc3ccccc23)c1
    2.0	-2.3%	-3%	4.4%	44	-6	0.8
> O=C1NC(c2cccs2)Nc2ccccc21 (centres undefined)
    16	u	4%	2.0%	2	5	-0.6
> CC1CCc2[nH]c3ccc(C(=O)N(C)CC(=O)Nc4ccccc4Cl)cc3c2C1 (centres undefined)
    x	-5.4%	x	0.0%	-1	5	-0.5
> Cc1ccccc1OCc1nc(-c2cccnc2)no1
    -3.8	x	2%	-0.8%	-1	2	1.0
> CCCn1c(=N)n(CC(O)COc2ccccc2OC)c2ccccc21 (centres undefined)
    x	0.3%	x	-1.2%	1	x	0.0

# Exported in CSV form: four of the compounds above.
smiles,Menin-MLL FL inh,ClpP mod,Sfp inh,PINK1 modulator,TRPML1 blocker,TRPV1 potentiator,TRPML1 ag
CCOC(=O)Cc1nnc(NC(=O)C2CCCCC2)s1,2.3,0.7%,18%,0.6%,1,8,1.7
CC(C)c1ccc(NC(=O)N2CCOCC2)cc1,1.4,0.3%,15%,1.7%,-12,-27,-0.2
O=C(NC1CCCCCC1)c1ccc(Br)o1,4.8,x,11%,-2.1%,-19,1,1.0
Cc1ccc(-c2nnn(CC(=O)N(CC3CCCO3)C(C(=O)NC3CCCC3)c3ccc(F)cc3)n2)o1 (centres undefined),4.8,-0.9%,12%,4.5%,-3,-8,-0.3

# (next part)
# Values run as follows: Menin-MLL FL inh	ClpP mod	Sfp inh	PINK1 modulator	TRPML1 blocker	TRPV1 potentiator	TRPML1 ag
> COc1ccc(C(=O)Nc2cccc(S(C)(=O)=O)c2)cc1
    -0.8	-1.1%	22%	2.2%	31	-10	-0.3
> Cc1ccc(C(=O)CCC2CCCC2=O)cc1 (centres undefined)
    -1.2	0.4%	12%	-1.7%	-3	-22	0.1
> COc1cccc(NC(=O)C2CCN(c3ncccn3)CC2)c1
    0.3	u	15%	-1.7%	-10	0	0.0
> COc1ccc(Nc2nc3cc(-c4ccccc4C)sc3c(=O)n2C)cc1OC
    x	-22%	x	-0.8%	-7	x	-0.9
> CCOC(=O)c1ccc(Oc2nc(NC(C)(C)C)nc(N(C)C)n2)cc1
    0.1	-2.1%	-12%	8.6%	17	-6	-0.1
> Cc1cc(C)cc(OCCNS(=O)(=O)c2cccs2)c1
    3.2	x	-11%	0.5%	-16	-6	0.2
> CC(C)(C)OC(=O)N1CCC(C(=O)NCC2CCCO2)CC1 (centres undefined)
    4.4	-1.7%	17%	0.6%	-25	1	0.0
> COc1cc(CN2CCNC(=O)C2CC(=O)N(C)Cc2ncc[nH]2)cc(OC)c1 (centres undefined)
    3.3	x	-20%	2.9%	32	-2	-0.9
> O=C(CNC(=O)C1COc2ccccc2O1)N/N=C/c1ccc([N+](=O)[O-])cc1 (centres undefined)
    6.9	-1.2%	4%	1.5%	-12	4	-0.5
> O=C(CCNc1ccccc1)c1cccc([N+](=O)[O-])c1
    -2.2	0.6%	-16%	2.6%[38.3 µM]	-1	-10	0.6
> O=C(Nc1ccccc1C(F)(F)F)c1ccc(CN2CCC(Cc3ccccc3)CC2)cc1
    2.9	-0.8%	-1%	6.4%	60	-1	-1.0
> Cc1ccccc1CN1C(=O)C2(c3ccccc31)N(c1ccccc1)C(=O)CS2(=O)=O (centres undefined)
    x	1.3%	x	-4.3%	9	x	1.9
> COc1ccc(-n2nc([N+](=O)[O-])c(=NCc3ccco3)n2O)cc1
    -1.3	x	-28%	5.7%	18	0	-1.2
> O=C(NCc1ccco1)C1CCCCC1
    -0.8	-1.1%	14%	-1.1%	-18	0	3.8
> C/C(=N\N)c1c(-c2ccccc2)c2cc(C)ccc2[nH]c1=O
    -3.0	-0.5%	15%	0.3%	7	3	-0.1
> CC(=O)c1c(-c2ccccc2)c2cc([N+](=O)[O-])ccc2[nH]c1=O
    3.3	1.5%	-16%	0.9%	-11	14	1.0
> CC1CCN(c2nc3c(N)ncnc3n2[C@@H]2O[C@H](CO)[C@@H](O)[C@H]2O)CC1
    0.4	0.3%	16%	0.6%	x	-6	x
> O=C(CSc1nc2ccccc2[nH]1)Nc1nc(-c2cccc(Br)c2)cs1
    0.0	-3.7%	7%	-2.6%	10	10	-0.2
> COc1ccc(/C=N/Nc2nc(C)cc(=O)[nH]2)cc1OC
    0.1	-0.6%	5%	-0.3%	2	14	-0.2
> COc1ccc(OCC(=O)NC2CCSc3ccccc32)cc1 (centres undefined)
    x	x	x	-0.3%	-6	x	3.6
> O=C(CN1CCC(C(=O)c2ccc(F)cc2)CC1)NCc1ccccc1F
    0.0	0.1%	14%	3.6%	0	12	-1.4
> CCOC(=O)/C(C#N)=N/Nc1ccccc1C(=O)O
    2.7	0.3%	13%	1.3%	x	3	x
> C[C@@H](C(=O)NCCc1c[nH]c2ccccc12)[C@H]1C[C@]1(C)[C@H](NC(=O)OCc1ccccc1)c1ccccc1
    0.5&-2.5	-2.1%	11%&27%	2.8%	5	-5	-0.7
